Vaccinia Venus = inhibitors of vaccinia virus (Venus reporter). Vaccinia virus Venus reporter expression, fluorescence. Potency, µM (series often up to 36.5 µM), inactives show top-dose activity change, negative = inhibition, hits mostly inhibitors. 330,000 tested, 0.46% active; active means well fitted inhibition curve with a large enough effect; inconclusive means small, poorly fitted or top-dose-only effect; inactive means no such curve, though single readings can be large or run the other way; tested in A549 cells; further: nearly all actives have a fitted effect of over 30% in size; inactives centre near -10
VACV mCherry inh = inhibitors of vaccinia virus infection (mCherry reporter signal); Vaccinia virus mCherry reporter infection, fluorescence; about a quarter of the inactives have no number; Potency, µM (titrated, usually from 36.5 µM), for inactives: at the highest dose activity change, negative = inhibition, usual class: inhibitors; 310,000 tested, 0.63% active; active = well fitted inhibition curve with a large enough effect; inconclusive = small, poorly fitted or top-dose-only effect; inactive = no such curve, though single readings can be large or run the other way; tested in A549 cells; further: nearly all actives have a fitted effect of over 35% in size; inactives centre near -10
The depositor's hits bear a star; i = inactive; u = inconclusive; x = not tested or not shown; & = joins results of further samples; [ ] = another dose, or the depositor's remark. On the % scale 0 is the no-effect control and ±100 the full control effect; potency means the concentration at half of the fitted maximal effect.

SMILES | Vaccinia Venus | VACV mCherry inh
CC(C)(C)c1ccc(C(=O)N2CCC2(C)C(=O)NCc2ccc3c(c2)OCO3)cc1 (stereo not given) | -17.4% | 1.1%
COc1cc(OC)c(NC(=O)C(CC(C)C)N2Cc3ccccc3C2=O)cc1Cl (stereo not given) | -8.0% | i
O=C(C1=C(O)C(=O)N(CC2CCCO2)C1c1cccc(O)c1)c1ccco1 (stereo not given) | -4.1% | 18.7%
CC(C)OP(=O)(OC(C)C)C(Nc1ccccc1)c1cccnc1 (stereo not given) | -5.0% | -14.7%
O=S1(=O)CCOC[C@H](CC2CCCCC2)N1Cc1cccc(F)c1 | -19.1%&-27.7% | u
O=C(NC(Sc1ccc(Cl)cc1)C(=O)O)c1ccccc1 (stereo not given) | -15.1% | -25.7%
Cc1ccc2nccc(C(=O)N3CCCC(N4CCN(c5ccc(F)cc5)CC4)C3)c2c1 (stereo not given) | -8.5% | -13.4%
CCCCN(C)C(=O)c1nc2ccccn2c1CN1CCC[C@H]1C(=O)OC | 0.9% | -14.4%
COc1ccc(NS(=O)(=O)c2cc(NC(=O)Cc3c(F)cccc3Cl)ccc2OC)cc1 | -18.1% | -11.7%
C[C@H](CO)N1C[C@H](C)[C@H](CN(C)S(C)(=O)=O)OCc2cnnn2CCCC1=O | -10.6% | i
Cc1ccccc1CN1C(=O)/C(=C\c2ccc(C(=O)NCCN3CCOCC3)cc2)Sc2ccccc21 | -17.4% | u
CN(CC1CCCO1)S(=O)(=O)c1ccc(C(=O)N2CCN(c3ccccc3)CC2)cc1 (stereo not given) | -4.1% | i
CC1CC(C)(C)CC2(C1)NC(=O)N(CC(=O)NCCc1c[nH]c3ccccc13)C2=O (stereo not given) | 7.5% | 1.6%
COc1ccc(C(=O)CCC(=O)NCCc2c[nH]c3ccccc23)cc1 | -9.7% | -11.7%
O=C1C=C(c2ccc(C(=O)O)cc2)C[C@@H](c2ccc(Cl)cc2)C1 | -6.8% | -27.3%
Clc1ccccc1-c1nn2c(-c3cc(-c4ccccc4)n[nH]3)nnc2s1 | u | u
CN(CCOc1ccc(Cl)cc1)C(=O)c1cc([N+](=O)[O-])ccc1N1CCOCC1 | -13.8% | -27.2%
COC(=O)Cn1ncc2c3ccccc3n(C)c2c1=O | -21.3% | x
O=C(Cc1ccc(NC(=O)C2CCCN(C(=O)c3ccccc3)C2)cc1)Nc1ccc(C(=O)N2CCOCC2)cc1 (stereo not given) | -18.0% | -9.2%
Cc1nc(Cl)c2c(n1)N(CC(N)=O)C(=O)CO2 | -11.8% | i
Cc1cc(C)nc(-n2nc(C)cc2NC(=O)c2cccc(S(=O)(=O)N(C)C)c2)n1 | -2.6% | -13.3%
O=C1OCCC1Sc1nc2ccccc2c(=O)n1Cc1ccc(F)cc1 (stereo not given) | -8.0% | -10.2%
CC(=O)N1CCc2c(sc3c2c(=O)n(-c2ccccc2)c(=O)n3Cc2cccc(C(F)(F)F)c2)C1 | -12.2% | u
CC(=O)c1ccc(NC(=S)N2CCN(CCN3C(=O)c4cccc5cccc(c45)C3=O)CC2)cc1 | -5.7% | -8.9%
Nc1nc(SCC(=O)Nc2ccc(Cl)cc2C(F)(F)F)n[nH]1 | -12.7% | -14.3%
CCOC(=O)c1sc(NC(C)=O)c(C(=O)OCC)c1C | -8.0% | i
COc1ccc(-c2noc(CCCC(=O)NC3CCCCC3)n2)cc1OC | -16.8% | i
Cc1cc(Cl)c(OCCOCCN2CCC(C)CC2)c(Br)c1 | -14.4% | -24.9%
CC(C)CCNC(=O)C(C)N(Cc1ccc(F)cc1)C(=O)c1ccc(CN2CCOCC2)o1 (stereo not given) | -5.9% | 5.7%
Clc1ccc(Cn2nnc3ccccc32)cc1 | -19.0% | -12.2%
CC(=O)c1sc(NC(=O)c2ccc(C)cc2)nc1C | -16.0% | i
COc1ccc(CCn2c(C)cc3c(c2=O)C(c2ccncc2)C(C#N)=C(N)O3)cc1OC (stereo not given) | -14.6% | x
COC(=O)c1ccccc1NC(=O)CSc1nc2nc(C)cc(C)n2n1 | -5.4% | 1.5%
Cc1ccc(S(=O)(=O)N2CCCCC2CCNC(=O)C(=O)NCc2ccccc2)cc1 (stereo not given) | u | -23.5%
Cc1ccc(N2NC3(CCN(C(N)=O)CC3)NC2=O)cc1 | -4.8% | u
O=c1c2ccccc2sn1-c1ccc(S(=O)(=O)N2CCOCC2)cc1 | -9.8% | -1.3%
CC(C)n1c(O)c(N=Nc2ccc(Cl)nn2)c2ccccc21 | -9.1% | i
CN(C)Cc1cc(C(C)(C)c2ccccc2)ccc1O | -12.7% | u
CCc1nc(-c2ccccc2)cc(=O)[nH]1 | -10.0% | i
Cc1oc(-c2ccccc2F)nc1CSCC(=O)NC1CC1 | -9.0% | -13.4%
CCc1ccc(NC(=O)[C@H](Cc2ccccc2)N2Cc3ccccc3C2=O)cc1 | 2.2% | 3.7%
CCC(=NCc1ccco1)c1c(O)n(-c2ccccc2)c(=O)[nH]c1=O | -10.7% | x
CCOC(=O)CN1C(=O)S/C(=C/c2ccc(N3CCCCC3)o2)C1=O | 66.3%[activator] | -5.8%
Cc1ccc(C(=O)Nc2ccc(Cc3ccncc3)cc2)cc1[N+](=O)[O-] | -12.6% | u
Cn1c(SCC(=O)c2c(N)n(C)c(=O)n(C)c2=O)nnc1-c1ccccc1 | -3.9% | -12.5%
COc1ccccc1CC(=O)NNS(=O)(=O)c1ccccc1[N+](=O)[O-] | 5.8% | 7.3%
Cc1ccc(C(=O)NCc2nnc3c(C(F)(F)F)cc(Cl)cn23)o1 | -9.6% | -1.0%
CCc1ccc(CNC(=O)CSCc2cnn(-c3ccccc3)c2-n2cccc2)cc1 | 7.6% | 6.9%
O=C(N/N=C/c1ccccc1O)c1ccc2c(c1)OCO2 | u | u
CCCN(C(=O)c1cc(-c2ccco2)nc2ccccc12)c1c(N)n(Cc2ccccc2)c(=O)[nH]c1=O | -15.0% | -19.6%

New compounds follow:
SMILES | Vaccinia Venus | VACV mCherry inh
Cc1nn(C)c2c1c(C(F)(F)F)cc(=O)n2C(C)C(=O)NCCc1ccc(Cl)cc1 (stereo not given) | -0.9% | -4.8%
O=C1c2ccccc2S(=O)(=O)N1Cc1nc2ccccc2s1 | -4.1% | -13.4%
CO[C@H](C(=O)N(C)C[C@@H]1OCc2ccccc2-c2c(n(C)c3ccccc23)C(=O)N([C@H](C)CO)C[C@@H]1C)c1ccccc1 | -12.4% | i
Cc1cc(C)c2nc(N3CCC(C(=O)N4CCN(C(=O)c5ccco5)CC4)CC3)sc2c1 | -27.0% | u
CCCC(=O)OCC(=O)Nc1cc([N+](=O)[O-])ccc1OC | -12.4% | i
CCOC(=O)C(Cc1ccccc1)C(=O)Nc1cccc2ccccc12 (stereo not given) | -3.7% | i
Cn1c(SCC(=O)Nc2ccccc2)nnc1-c1ccc2nonc2c1 | -5.7% | -19.9%
COC(=O)c1nc2n(n1)C(c1cccc(Cl)c1)C(C(=O)Nc1ccccc1OC)=C(C)N2 (stereo not given) | -6.2% | -8.7%
Cc1ccc(CC(=O)NCCCn2ccnc2)cc1 | -3.2% | -9.5%
Cc1cc(C)c(S(=O)(=O)Nc2ccc(C(=O)O)cc2)cc1S(=O)(=O)Nc1ccc(C(=O)O)cc1 | -9.5% | -14.8%
Cc1ccccc1-n1c(SC2CCOC2=O)nnc1-c1ccncc1 (stereo not given) | -7.5% | i
CCOc1ccc(Br)cc1S(=O)(=O)Nc1ccc(NC(=O)c2ccccc2F)cc1 | -23.2% | u
CN(CC(=O)Nc1ccc(Cl)c(C(F)(F)F)c1)C(=O)Cc1c[nH]c2ccccc12 | -14.7% | -23.1%
C=CCNC(=S)/N=c1/ccccn1CC | -9.7% | i
c1ccc(SCc2cn(C[C@H]3CC[C@@H]([C@@H]4CC[C@H](Cn5cc(CSc6ccccc6)nn5)O4)O3)nn2)cc1 | -14.5% | -7.8%
O=C(c1ccco1)N1CCN(S(=O)(=O)c2ccc3[nH]c(=O)oc3c2)CC1 | -10.7% | x
COc1ccc(C(C(=O)NC2CCCCC2)N(C(=O)c2snc(C(N)=O)c2N)c2ccccc2OC)cc1 (stereo not given) | -13.3% | 6.5%
Cc1ccccc1-n1c(O)c(C=Nc2ccc3c(c2)OCO3)c(=O)[nH]c1=O | -5.0% | i
COc1ccc([C@H]2C[C@@H](O)[C@H](n3cc(-c4ccc(F)cc4)nn3)CN2C(=O)C2CCCCC2)cc1 | -9.9% | i
COc1ccccc1-c1cc(C(=O)N2CCN(c3ccc(F)cc3)CC2)no1 | -10.8% | -1.7%
CC(=O)C1[C@H](N(C)C)CC2C3CC=C4CC(O)CC[C@]4(C)C3CC[C@@]21C (stereo not given in full) | -23.9% | i
CC(C)n1nc(C(=O)OCC(=O)N2CC(=O)Nc3ccccc32)c2ccccc2c1=O | -8.0% | i
C/C(=N\NC(=O)COc1ccccc1[N+](=O)[O-])c1cccc(NC(=O)c2ccncc2)c1 | -9.6% | -14.0%
COc1ccc(N2CCN(C(=O)Nc3ccc(Cl)cc3)CC2)cc1 | -7.4% | -10.2%
COC(=O)c1nc(-c2ccc3c(n2)C(=O)C(N)=C(OC)C3=O)c(N)c(-c2ccc(OC)c(OC)c2O)c1C | -5.1% | -8.4%
COC(=O)c1c(NC(=O)/C=C/C(=O)O)sc(C)c1-c1ccc(C(C)C)cc1 | -26.3% | -14.4%
CCCN1CCc2c(sc(NC(=O)CCS(=O)(=O)c3ccccc3)c2C(N)=O)C1 | -19.3% | -11.1%
O=C(COC(=O)C1CCN(c2ccc(C(F)(F)F)cn2)CC1)NC1CCCCC1 | 0.6% | -1.3%
Cc1ccc(-n2nc3c(c2NC(=O)c2ccc4c(c2)OCO4)CSC3)cc1 | -4.6% | x
O=C(COC(=O)/C=C/c1cccc(F)c1)NC1CC1 | -1.8% | -5.7%

Quoted at random: three records from the list, in no set order.
SMILES | Vaccinia Venus | VACV mCherry inh
CCCN1CCc2c(sc(NC(=O)CCS(=O)(=O)c3ccccc3)c2C(N)=O)C1 | -19.3% | -11.1%
COc1ccc(N2CCN(C(=O)Nc3ccc(Cl)cc3)CC2)cc1 | -7.4% | -10.2%
O=C(COC(=O)/C=C/c1cccc(F)c1)NC1CC1 | -1.8% | -5.7%

(list continues)
SMILES | Vaccinia Venus | VACV mCherry inh
CN1CCN(C(=O)Nc2ccccc2CC[N+](=O)[O-])CC1 | 3.8% | 7.0%
CC(=O)c1ccc(N2CC(C)(C)C2=O)cc1 | -7.8% | i
COc1ccc(CN(C)S(=O)(=O)c2nnc(NC(=O)c3ccccc3OC)s2)cc1OC | -6.3% | i
CC1(C(=O)Nc2cccc(Oc3ccccc3)c2)CCN1Cc1cccc2c1OCO2 (stereo not given) | -4.6% | i
COc1ccc(/C=c2\sc3nc(-c4ccccc4)c(-c4ccccc4)n3c2=O)cc1OC | -5.5% | i
COc1cccc(NC(=O)COC(=O)CNS(=O)(=O)c2c(F)cccc2F)c1 | 1.5% | i
Cc1ccc(Nc2nc(N)nc(CCl)n2)cc1 | -7.5% | i
O=C(NC1CCCCC1)C1CCCN(S(=O)(=O)c2cccs2)C1 (stereo not given) | -22.0% | x
COc1ccc(S(=O)(=O)CC(=O)c2cc(C)c(O)c(C)c2)cc1 | -9.4% | -27.1%
CCCCC(=O)Nc1ccc(C(=O)N(CC)c2ccccc2C)cc1 | -24.9% | u
CCc1ccc(C(=O)c2cc3ccc(O)cc3oc2=O)cc1 | -11.7% | i
CCN(c1ccccc1)c1nnc(NC(=O)Nc2cccc(C(F)(F)F)c2)s1 | -21.0% | -21.0%
C/C=C1\COC(C(=O)NCc2ccccc2)(C(F)(F)F)C=C1C=C1CCCCC1 (stereo not given) | -6.0% | -2.9%
O=C(Nc1ccc(Br)cc1)c1ccc(F)c(S(=O)(=O)N2CCc3ccccc32)c1 | u | -16.4%
Cc1ccc(C2C=C(c3ccccc3)Nc3nc(N4C(=O)CCC4=O)nn32)cc1 (stereo not given) | -10.0% | -20.2%
CN(C)S(=O)(=O)c1cccc(C(=O)Nc2ccccc2[N+](=O)[O-])c1 | -12.8% | -14.0%
COc1cc(C(=O)/C=C/c2cccnc2)ccc1O | 8.91µM* | 3.55µM*
COC(=O)CSc1nnc(NC(=O)/C=C\c2ccc3c(c2)OCO3)s1 | -14.5% | i
O=C(NCCCN1CCN(c2ccccc2F)CC1)c1cc2c(s1)-c1ccccc1OC2 | -25.6% | -22.9%
CCC(Sc1nnc(-c2ccc(OC)c(OC)c2)c(-c2ccc(OC)c(OC)c2)n1)C(=O)NC1CCCC1 (stereo not given) | -12.2% | -14.9%

Record cards (already shown):
Results for CCN(c1ccccc1)c1nnc(NC(=O)Nc2cccc(C(F)(F)F)c2)s1 : Vaccinia Venus: -21.0%; VACV mCherry inh: -21.0%
Results for O=C(Nc1ccc(Br)cc1)c1ccc(F)c(S(=O)(=O)N2CCc3ccccc32)c1 : Vaccinia Venus: u; VACV mCherry inh: -16.4%

New compounds follow.
SMILES | Vaccinia Venus | VACV mCherry inh
CC1CCCCC12NC(=O)N(CC(=O)NCc1cccs1)C2=O (stereo not given) | -12.9% | i
O=C(NN1C(=O)/C(=C/C=C/c2ccco2)SC1=S)c1ccncc1 | 18.2% | -10.0%
COc1ccccc1OCc1nnc(SCC(=O)Nc2ccc(N3CCOCC3)cc2)n1C | -12.0% | -0.2%
O=[N+]([O-])c1ccc(OCC(O)CNC2CCCC2)cc1 (stereo not given) | -3.7% | -12.8%
CC(C)(O)c1ccccc1CC[C@@H](SCC1(CC(=O)O)CC1)c1cccc(/C=C/c2ccc3ccc(Cl)cc3n2)c1 | -17.2% | i
COc1cccc(CNC(=O)CSc2nnc3c(n2)[nH]c2ccccc23)c1 | -6.6% | 4.1%
S=c1[nH]nc(-c2ccccc2)n1/N=C/C=C/c1ccco1 | -5.9% | i
